# Tg IFNy HTS – blocks Toxoplasma gondii growth in the presence of IFN-gamma | activity change, negative = inhibition, %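 (about 20 µM by stock and volumes)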 | hit rate 3.8% among 69,000 | AID 1259416 | Toxoplasma gondii growth in IFN-gamma-treated host cells; active compounds read low; reference of the scale not given here;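 active = below -70%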;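 also: host cells are HeLa cells infected with Toxoplasma gondii; parasite growth read as luciferase light; one replicate is shown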
# * = called active by the depositor; i = inactive; & = joins results of further samples. A portion of the library, so the mix of outcomes need not match the whole.
SMILES,Tg IFNy HTS
Cc1ccc(NC(=O)c2ccc3ccc(N4CCN(S(C)(=O)=O)CC4)n3c2)nc1,-7
C=CCOCc1nnc2n1CCN(Cc1cnn(C)c1)C2,-5
N#C[C@@H]1[C@@H](c2ccc(C#CC3(O)CCCC3)cc2)[C@@H](CO)N1C(=O)C1CCCCC1,-9
CC1CCN(S(=O)(=O)c2ccc3c(c2)CCC(=O)N3CC(=O)NCCN2CCOCC2)CC1,31
CCc1cnc(C)nc1NC(C)c1nncn1C (stereo not given),22
CC1CN(C)CCC1CCc1ccc(NC(=O)c2cnccn2)cc1 (stereo not given),85
c1cc2c(cc1C1CCCCC1)c1c3n2CCNC3CCC1 (stereo not given),-29&-51&11
C[C@H](NC(=O)C[C@@H]1C=C[C@H](NS(=O)(=O)c2cccc(F)c2)[C@H](CO)O1)c1ccccc1,-5
O=C(CO[C@@H]1CCNC[C@@H]1Cc1ccccc1)N1CCCC1,-29
Cn1nnc2c1CCN(C(=O)CS(C)(=O)=O)C2COCC1CC1 (stereo not given),5
CCOC(=O)c1cc(C)nc2c1c(=O)n(Cc1nc(-c3ccccc3C)oc1C)c(=O)n2C,-45
Cc1ccc2c(C)c(C(=O)N3CCNCC3C(=O)N3CCOCC3)oc2c1 (stereo not given),-18
Fc1cccc(CN2CCN(Cc3cccc4nccnc34)CC2)c1,9
COc1ccc(C)cc1NC(=O)c1cncc(NS(=O)(=O)c2ccc(Br)cc2)c1,-43
O=C(NCCc1c[nH]c2ccc(Cl)cc12)c1ccc(-n2nnc3cccnc32)cc1,-12
O=C1N(c2ccccc2)C[C@@H]2C[C@@H](c3cccn3-c3cccnc3)N3CCC[C@@]123,2
CCOC(=O)N1CCN(C(=O)CC2(c3ccccc3C)CC(=O)N(Cc3ccccc3)C2=O)CC1 (stereo not given),185
CCOC1COC2(CCN(S(=O)(=O)c3cn(C)cn3)CC2)C1 (stereo not given),12
CC(C)COCC1CN(Cc2ccsc2)Cc2ncn(C)c21 (stereo not given),0
COc1cc(NC(=O)Cn2c(=O)cc(C(=O)N3CCCC3)c3ccccc32)cc(OC)c1,6

# 5 of the compounds above, bar-delimited:
Molecule | Tg IFNy HTS
CCOC(=O)c1cc(C)nc2c1c(=O)n(Cc1nc(-c3ccccc3C)oc1C)c(=O)n2C | -45
CCOC(=O)N1CCN(C(=O)CC2(c3ccccc3C)CC(=O)N(Cc3ccccc3)C2=O)CC1 (stereo not given) | 185
COc1cc(NC(=O)Cn2c(=O)cc(C(=O)N3CCCC3)c3ccccc32)cc(OC)c1 | 6
Cc1ccc2c(C)c(C(=O)N3CCNCC3C(=O)N3CCOCC3)oc2c1 (stereo not given) | -18
O=C(NCCc1c[nH]c2ccc(Cl)cc12)c1ccc(-n2nnc3cccnc32)cc1 | -12

# Carrying on:
SMILES,Tg IFNy HTS
COC(C)(C)CC(C)NCc1noc(C2CCCC2)n1 (stereo not given),-6
CCOc1ccc(C(=O)C2CCN(CC(=O)Nc3cccc(Cl)c3C)CC2)cc1,-20
CCCCS(=N)(=O)CC[C@H](N)C(=O)O (stereo not given in full),9
Cc1ccc(S(=O)(=O)NC(=O)N2CCCN(Cc3ccc(F)cc3)CC2)cc1,-7
COc1cc(C(F)(F)F)nc2c(Br)c(C(C)(C)C)nn12,55
O=C(Cn1c(=O)oc2cc(Cl)ccc21)Nc1nc(-c2ccccc2)cs1,14
COc1ccc2c3c([nH]c2c1)[C@@H](CO)N(C(=O)Nc1ccc(F)cc1)CC31CN(Cc2cc(F)ccc2F)C1,131
C[N+](C)(C)CCCC(=O)c1ccc2c(c1)OCO2,-17
CN(C)C(=O)CN1CC[C@@H](N(C)C)[C@@H]1Cc1cccnc1,-1
Cc1c(CCNC(=O)CC2COCCN2)c2cccc3c2n1CCC3 (stereo not given),57
COc1ccc(OCC(=O)N2CCC3(CC2)Nc2cc(OC)ccc2-n2cccc23)cc1,18
O=C1C[C@H]2CC[C@@H](CN1)N2C(=O)CN1CCOC1=O,-52
CCOc1ccccc1NC(=O)c1c(O)c2cccnc2n(-c2cccc(F)c2)c1=O,100
COc1ccc(C2(NCc3ccc(-n4ccnc4C)cc3)CCCC2)cc1,-47
c1ccc(CN2CCC(Cn3cnnc3)C2)cc1 (stereo not given),1
CN(C(=O)c1nc(Nc2ccc(Cl)cc2)c2ccccc2n1)c1ccccc1F,40
CCc1nnc(-c2ccc3ccn(CC(=O)N4CCN(c5ccccn5)CC4)c3c2)o1,44
Nc1nc2nc(C3CCCN(C(=O)c4cccnc4)C3)ccc2s1 (stereo not given),-1
O=C(CCCN1CCC(O)(c2cccc(C(F)(F)F)c2)CC1)c1ccc(F)cc1,-36
COc1ccc(Cl)cc1NC(=O)Cn1ncc2c(N3CCN(c4ccccn4)CC3)ncnc21,-92*
Nc1c(-c2ccc(F)cc2)nc2cnccn12,40
N#C[C@@H]1[C@@H](c2ccccc2-c2cccc(F)c2)[C@@H](CO)N1C(=O)C1CC1,-11
CCCNC(=O)[C@@H]1[C@@H](CO)[C@@H]2Cn3c(cccc3=O)[C@H]1N2CCC(F)(F)F,2
CN1C(=O)CCc2cc(C(=O)NC3CCCC3)ccc21,10
C[C@H](NC(=O)/C(C#N)=C/c1ccc(O)c(O)c1)c1ccccc1,-18&28
Cc1cccc(NC(=O)N2CCC3(CC2)Nc2cc(F)ccc2-n2cccc23)c1,208
COCc1cnc2n1CCN(C(=O)c1cc3cc(Cl)ccc3o1)C2C (stereo not given),-34
c1cnc(N2CC[C@@]3(C[C@H](N4CCCC4)CCO3)C2)nc1,-3
O=C(Cc1ccc2nc[nH]c2c1)Nc1ccc(OCc2ccccc2F)cc1,10
CN(C)CCNC(=O)CC1CC2(CCN(C(=O)N3CCOCC3)CC2)c2ccccc21 (stereo not given),-3
CC(C)(C)CN1CCNC(=O)C1CC(=O)NCc1ccc2nsnc2c1 (stereo not given),-4
O=C(O)C1CC(=O)N(c2ccc(CCc3ccccn3)cc2)C1 (stereo not given),1
O=C(NCC[C@H]1CC[C@@H](NC(=O)c2ccncc2)[C@@H](CO)O1)Nc1ccc(Cl)cc1,34
CNC(=O)c1cc(=O)n(CC(=O)Nc2ccc(Br)cc2F)c2ccccc12,0
O=C(c1cccnc1)N1CC[C@@H]2[C@@H](CO)Nc3ccc(C4=CCCCC4)cc3[C@@H]21,5
C=CCOCC12CCCOC1CCN(C(=O)c1cccn1C)C2 (stereo not given),-3
COc1ccc(C(=O)NC(=O)Nc2cccc(C(F)(F)F)c2)cc1OC1CCCC1,59
COc1ccc(C(CC(=O)N2CCOCC2)C(C)C)cc1 (stereo not given),8
COc1cncc(C(=O)Nc2ccc(Cl)cc2)c1,30
O=C(Cn1c(=O)oc2ccccc21)Nc1nncs1,24

# An excerpt of these results, with each value named.
C=CCOCC12CCCOC1CCN(C(=O)c1cccn1C)C2 (stereo not given)
  Tg IFNy HTS: -3
COc1ccc(C(=O)NC(=O)Nc2cccc(C(F)(F)F)c2)cc1OC1CCCC1
  Tg IFNy HTS: 59
COc1ccc(C(CC(=O)N2CCOCC2)C(C)C)cc1 (stereo not given)
  Tg IFNy HTS: 8
COc1cncc(C(=O)Nc2ccc(Cl)cc2)c1
  Tg IFNy HTS: 30

# Following part
SMILES,Tg IFNy HTS
CCOc1ccc2oc(=O)cc(CSc3nc4ccccc4c(=O)[nH]3)c2c1,-12
CS(=O)(=O)N1CCC(C(=O)NCC2CCCO2)CC1 (stereo not given),6
CN(C)CCN1C(=O)CCC12CCCN(C(=O)c1ccc[nH]1)CC2 (stereo not given),-39
O=C(C1CCN(Cc2cc3ccccc3n2Cc2cccc(F)c2)CC1)N1CCCC1,-29
COCC1(C(=O)NCc2cc(-c3ccccc3Cl)on2)CCC1,13
Cc1cnc(Cn2cnc(-c3ccccc3)c2CCn2nc(C)cc2C)cn1,8
Cc1ccc2[nH]c(C(=O)O)c(CN3CCc4c(nc(-c5ccccn5)[nH]c4=O)C3)c2c1,-5
COCC#Cc1ccc([C@@H]2[C@H]3CN(C(=O)C4CCCCC4)CC(=O)N3[C@H]2CO)cc1,-16
CC(=O)CC1N(Cc2ccccc2)C(=O)C2N(C3CCCCC3)C(=O)C3CC(=O)OC312 (stereo not given),107
CN1C[C@@H]2CC[C@H](CC1=O)N2C(=O)c1ccnc(-n2cnnc2)c1,-18
CCN(CC)C1CCN(Cc2cccc(C(=O)Nc3nccn3C)c2)C1 (stereo not given),11
COc1ccc(C(=O)N(c2cc(OC)cc(OC)c2)C2(C(=O)NCc3ccccc3)CCN(C(C)=O)CC2)cc1,-27
CNCc1ccc([C@@H]2CN(C(C)=O)C[C@H]2C(=O)N(C)C)cc1,21
c1cncc(-c2noc(C3CCCN(Cc4cc5n(n4)CCNC5)C3)n2)c1 (stereo not given),4
O=C(C1Cc2ccccc2C1)N1CCC(n2cc(C3CCCC3)nn2)CC1,4
N#C[C@@H]1N[C@@H](CO)[C@@H]1c1ccc(C#Cc2ccccc2F)cc1,51
CC(C)(C)NS(=O)(=O)c1ccc2[nH]c(=O)ccc2c1,i
COc1cc(OC)c(-c2nccn2-c2ccc3n[nH]nc3c2)cc1OC,-44
COc1ccc(OC)c(NC(=O)c2cncc(NS(=O)(=O)c3ccc(C)cc3C)c2)c1,1
CCCc1nc(C)cc(N2CCN(c3ncccc3C(N)=O)CC2)n1,-11
c1ccc(-c2nc3ccccc3nc2-c2cccc3ccccc23)cc1,27
O=C(NCc1ccc(F)cc1F)c1c(O)c2cccnc2[nH]c1=O,52
CN1CC(=O)N2C[C@@H](NC(=O)c3ccc4nccnc4c3)C[C@H]2C1=O,2
COCC(=O)N1CCC2(CC1)C(=O)N(c1cncnc1)c1ccccc12,-6
Cc1cc2c(cc1-n1cnnc1)OCO2,5
O=C(c1ccccc1)n1nccc1-c1cc(-c2ccccc2)no1,213
Cc1nc(CCNC(C)Cn2cncn2)nc2c1CCCC2 (stereo not given),8
C1=NC2(CCCC2)Cc2c1ccc1ccccc21,12
COC(=O)c1ccccc1NC(=O)CN(c1ccc(OC)c(OC)c1)S(C)(=O)=O,-5
CO[C@@H]1CC[C@@H]2CCN(C)C(=O)[C@@H](C)N(C)C(=O)c3cccc(C#N)c3OC[C@@H]1O2,4
CS(=O)(=O)N1Cc2nc(C(=O)NCc3ccccc3)oc2C1,-44
COCCn1cc2c(n1)C(CNCc1ccc(C)o1)OCC2 (stereo not given),-3
Nc1ncnc2c1ncn2[C@@H]1O[C@H](CO)[C@@H](O)[C@H]1O,14
CCOc1nc2c(c(C)nn2-c2cccc(F)c2)c(C)c1CCC(=O)NCCc1c[nH]c2ccccc12,-26
c1cncc(-c2nccn2CCn2ccnc2)c1,-4
O=C(O)c1ccc(OC2CSC2)cc1,1
Cc1ccc(CSc2ncnc3sc(C)c(C)c23)cc1,-35
CCN1CCc2cc(C(=O)NCC3CC3)c(NCC3CC3)nc2CC1,-27
Nc1ccc(Oc2ccc3c(c2)OCO3)cc1,44
CCc1cccc(NC(=O)COc2nc(CC)nc3ccccc23)c1,-11
CS(=O)(=O)N1CCC(C(=O)NCCc2csc(-c3cccs3)n2)CC1,5
C/C=C/c1ccc2c(c1)[C@@H]1[C@@H](CCN1C(=O)Cc1ccncc1)[C@@H](CO)N2C,22
COc1ccccc1-c1cc(CNC(=O)c2cccc3ccnn23)on1,-18
Cn1nc2n(c1=O)CC(C(=O)Nc1cnc3n1CCCC3)CC2 (stereo not given),-9
CNC(=O)[C@@H]1C[C@@H]2CN(C(=O)C3CCOCC3)C[C@@H]2N1C(C)C,-7
Cc1cccc2c(=O)c(NC(=O)NCc3ccco3)c[nH]c12,1
Cn1cnc(S(=O)(=O)N2CCC3(CC(Nc4cccc(F)c4)CO3)C2)c1 (stereo not given),7
CN1C(=O)c2cc(NC(=O)c3cnccn3)ccc2OC[C@H]2O[C@@H](CC(=O)NCC3CCCCC3)CC[C@H]21,-7
CCC(=O)N1[C@H](CO)[C@H](c2ccc(C3=CCCC3)cc2)[C@@H]1CNC1CCCCC1,-15
COc1ccc2c3c([nH]c2c1)[C@@H](CO)N(CC1CCCC1)CC31CN(C)C1,101

# Taken from above.
# `CC(=O)CC1N(Cc2ccccc2)C(=O)C2N(C3CCCCC3)C(=O)C3CC(=O)OC312` (stereo not given) @ Tg IFNy HTS = 107
# `CN1C(=O)CCc2cc(C(=O)NC3CCCC3)ccc21` @ Tg IFNy HTS = 10
# `COc1ccc(C(CC(=O)N2CCOCC2)C(C)C)cc1` (stereo not given) @ Tg IFNy HTS = 8

# Further structures follow:
SMILES,Tg IFNy HTS
Cc1scc(C(=O)N2C[C@H](N)C[C@H]2C(=O)NC(C)C)c1-c1ccccc1,-6
Cc1cnn(Cc2nc(-c3ccc(NC(=O)COc4ccccc4)cc3)oc2C)c1,-38
O=C(CCSc1ccc2c(c1)OCCO2)NCc1noc(C2CCC2)n1,-6
Cc1sc2nc3n(c(=O)c2c1C)C(C)(C)Cc1ccccc1-3,-1
Cn1cc(-c2ccccc2)c(C(F)(F)F)n1,-13
Cc1cc(C)n(C2CCN(Cc3nc4ccccc4n3C)CC2)n1,-7
O=C(NCc1ccncc1)c1cccc2[nH]cc(CN3CCSCC3)c12,-18
COc1ccc(Cl)cc1C(=O)NCCc1sc(-c2ccc(F)cc2)nc1C,-102*
O=C(Nc1cccc(-n2cccn2)c1)C1CN(C(=O)Cc2ccc(F)cc2)C1,37
O=C(NC1CCCC1)c1nc2c(o1)CN(C(=O)CO)C2,-30

# Two entries picked at random from the list so far:
SMILES,Tg IFNy HTS
Cc1cnn(Cc2nc(-c3ccc(NC(=O)COc4ccccc4)cc3)oc2C)c1,-38
O=C(CCSc1ccc2c(c1)OCCO2)NCc1noc(C2CCC2)n1,-6

# Additional structures
SMILES,Tg IFNy HTS
OC1(C(F)(F)F)CC(c2ccc3c(c2)OCCO3)=NN1 (stereo not given),47
CN(Cc1nc(-c2ccccc2)no1)Cc1cccc2nccnc12,-7
COCCN1C(=O)CCc2cc(NS(=O)(=O)c3cc(C)ccc3C)ccc21,-30
CC(=O)Nc1ccc(C)cc1-c1nc2ccccc2[nH]c1=O,13
O=C(NCC1CC(=O)N(C2CC2)C1)c1cccc2c1NCCC2 (stereo not given),3
O=C(Cc1ccc(F)cc1)NCCc1c[nH]c2cccc(C3(O)CCOCC3)c12,50
Cc1noc(C)c1C(=O)NCCc1csc(C2=CCCN(C)C2)n1,1
CCn1c(C2CCN(C(=O)CSc3ccccc3C)CC2)nn(C)c1=O,-26
O=C(NCc1nc(-c2cccc(F)c2)c(-c2ccccn2)[nH]1)C1CCCCO1 (stereo not given),-5
